DUX4 inh – blocks DUX4-driven transcriptional activation. 293T-iDUX4 ZSCAN4-Gaussia luciferase reporter, 24 h; active compounds read low. actives 0.8% (n = 37,000). activity change, negative = inhibition, % (concentration not given with the values);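 active = -10% or lower and over 25 points stronger than a control reporter; inconclusive = -10% or lower with a smaller gap; inactive = above -10%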;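 also: 0% = median of neutral control wells and -100% = median of positive control wells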
DUX4 inh difference – further read-out of DUX4 inh, marked with its call; Gaussia minus Italica difference, %; measured here: selective DUX4 reporter inhibition;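 worked out from the two reporters; negative = selective loss of the DUX4 reporter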
DUX4 inh control – second read-out of DUX4 inh, no call of its own (marks repeat the call); activity change, negative = inhibition, %; measured here: Italica tet-on control reporter;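 0 = neutral control and -100 = positive control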
* = called active by the depositor; u = inconclusive; x = no result given. A portion of the library; rates above refer to the full screens.

Each structure is followed by: DUX4 inh difference	DUX4 inh control	DUX4 inh
- CCCNC(=O)N1C[C@H](O)COC[C@@H]2O[C@H](CC(=O)OC)CC[C@H]21
 : 9	-1.8	8
- CCN1[C@@H]2c3ccc(-c4ccc(OC)cc4)c(=O)n3C[C@H]1[C@H](CO)[C@H]2C(=O)NCC1CC1
 : -3	1.9	-2
- CN(C)CC(=O)Nc1ccc2c(c1)[C@H]1C[C@@H](CC(=O)NCCc3ccccc3)O[C@H](CO)[C@H]1O2
 : 15	2.0	17
- N#C[C@H]1[C@H](c2ccc(C3=CCCCC3)cc2)[C@@H](CO)N1C(=O)CN1CCOCC1
 : 0	1.9	2
- CO[C@H]1CN(C)C(=O)c2ccc(NS(=O)(=O)c3ccccc3C)cc2OC[C@@H](C)NC[C@H]1C
 : -1	3.8	3
- C[C@@H]1CN([C@H](C)CO)C(=O)CCCn2nncc2CO[C@H]1CN(C)C(=O)c1ccc2ccn(C)c2c1
 : 10	-0.4	10
- CC=Cc1ccc2n(c1=O)C[C@@H]1[C@@H](CO)[C@H](C(=O)N3CCc4ccccc4C3)[C@H]2N1Cc1ccncc1 (mixture of isomers)
 : 2	-4.7	-3
- O=C(C[C@@H]1C[C@H]2c3cc(NC(=O)Cc4ccncc4)ccc3O[C@H]2[C@H](CO)O1)NCCN1CCCCC1
 : 1	6.2	7
- CCCNC(=O)Nc1ccc2c(c1)C(=O)N(C)C[C@H](OC)[C@H](C)CN(C)[C@H](C)CO2
 : 3	0.9	3
- O=C(NCC1CCCCC1)[C@@H]1[C@@H](CO)[C@@H]2Cn3c(ccc(C4=CCCC4)c3=O)[C@H]1N2C(=O)CC1CC1
 : -6	0.7	-6
- CN1C(=O)c2cc(NC(=O)c3cc(F)cc(F)c3)ccc2OC[C@H]2O[C@@H](CC(=O)O)CC[C@@H]21
 : 1	4.0	5
- O=C(c1ccc2c(c1)OCO2)N1CC[C@@H]2[C@H](CO)Nc3ccc(-c4ccccc4)cc3[C@@H]21
 : 0	5.0	5
- COCCNC(=O)C[C@H]1C[C@@H]2c3cc(NS(=O)(=O)c4ccccc4)ccc3O[C@@H]2[C@H](CO)O1
 : -2	5.7	4
- C/C=C/c1ccc([C@@H]2[C@@H](CO)N(S(=O)(=O)CC)C23CN(C(=O)CC)C3)cc1
 : -1	2.7	1
- CO[C@@H]1CN(C)C(=O)c2cc(NC(=O)Cc3ccccc3)ccc2OC[C@@H](C)N(C(=O)c2ccccc2F)C[C@H]1C
 : -4	8.9	5

New compounds follow.
Each structure is followed by: DUX4 inh difference	DUX4 inh control	DUX4 inh
- OC[C@H]1[C@H](c2ccc(C#CC3CCCC3)cc2)[C@@H]2CN(CCC(F)(F)F)CCCCN12
 : x	x	u
- COCC(=O)N1CCCCN2[C@H](CO)[C@H](c3ccc(-c4cccc(C)c4)cc3)[C@@H]2C1
 : x	x	u
- COc1ccc2c3c(n(C)c2c1)[C@@H](CO)N(C(=O)c1ccc(F)cc1)CC31CCN(C)CC1
 : 0	6.8	7
- CN1C(=O)c2cc(NC(=O)Nc3cccc(Cl)c3)ccc2OC[C@@H]2O[C@H](CC(=O)NCCc3ccncc3)CC[C@@H]21
 : 0	0.0	0
- CN(C)CC(=O)N1CC(=O)N2[C@H](CO)[C@@H](c3ccc(-c4ccc(C(=O)N(C)C)cc4)cc3)[C@H]2C1
 : 2	13	15
- O=C(Cc1cccnc1)N1CC(=O)N2[C@H](CO)[C@@H](c3ccc(C#CC4CCCCC4)cc3)[C@@H]2C1
 : x	x	u
- CC=Cc1ccc2n(c1=O)C[C@H]1[C@H](CO)[C@@H](C(=O)N3CCc4ccccc4C3)N[C@@H]21 (mixture of isomers)
 : 7	-3.7	3
- CCCNC(=O)Nc1ccc2c(c1)C(=O)N(C)[C@H]1CC[C@H](CC(=O)O)O[C@@H]1CO2
 : -2	2.5	0
- CN1C[C@H]2[C@@H](c3ccccc31)[C@@H](CO)N2Cc1ccccc1Cl
 : -2	-3.4	-5
- COc1ccc(S(=O)(=O)N(C)C[C@H]2OCCCC[C@H](C)Oc3ccc(NC(=O)Nc4cccc5ccccc45)cc3C(=O)N([C@@H](C)CO)C[C@H]2C)cc1
 : 1	-1.1	0
- O=C(C[C@@H]1CC[C@@H]2[C@H](COC[C@H](O)CN2S(=O)(=O)c2ccc(Cl)cc2)O1)NCC1CCCCC1
 : -6	6.0	-1
- O=C(CC(F)(F)F)N1C[C@@H]2[C@H](c3ccccc31)[C@H](CO)N2C(=O)CN1CCOCC1
 : -3	5.9	3
- COCC(=O)Nc1ccc2c(c1)C(=O)N(C)C[C@H](OC)[C@H](C)CN(CCc1ccccc1)[C@H](C)CO2
 : 0	2.3	3
- CN1C(=O)c2cc(NS(C)(=O)=O)ccc2OC[C@@H]2O[C@@H](CC(=O)NCc3ccccc3)CC[C@@H]21
 : 0	0.2	0
- COC(=O)C[C@@H]1CC[C@@H]2[C@H](COc3ccc(NC(=O)c4cccc(Cl)c4)cc3C(=O)N2C)O1
 : 4	0.6	5

Whole records, looked up by structure. Order of screens: DUX4 inh difference | DUX4 inh control | DUX4 inh
Entry for CN1C(=O)c2cc(NC(=O)Nc3cccc(Cl)c3)ccc2OC[C@@H]2O[C@H](CC(=O)NCCc3ccncc3)CC[C@@H]21 → 0 | 0.0 | 0
Entry for O=C(C[C@@H]1CC[C@@H]2[C@H](COC[C@H](O)CN2S(=O)(=O)c2ccc(Cl)cc2)O1)NCC1CCCCC1 → -6 | 6.0 | -1

The list goes on.
Each structure is followed by: DUX4 inh difference	DUX4 inh control	DUX4 inh
- CO[C@@H]1CN(C)C(=O)c2ccc(NC(=O)c3cccc(Oc4ccccc4)c3)cc2OC[C@H](C)NC[C@@H]1C
 : x	x	u
- C[C@@H](NC(=O)C[C@H]1C[C@@H]2c3cc(NS(C)(=O)=O)ccc3O[C@@H]2[C@@H](CO)O1)c1ccccc1
 : 2	2.2	4
- O=C(C[C@H]1CC[C@@H]2[C@H](COC[C@H](O)CN2Cc2cocn2)O1)NCc1cccc(F)c1
 : 0	8.1	8
- COc1ccc(NC(=O)N(C)C[C@H]2OCc3ccccc3-c3ccccc3C(=O)N([C@@H](C)CO)C[C@H]2C)c(OC)c1
 : -7	10	4
- O=C(c1cccc(F)c1)N1CC[C@H]2[C@H](CO)Nc3ccc(-c4cccc(F)c4)cc3[C@H]21
 : x	x	u
- C[C@H](NC(=O)C[C@H]1CC[C@H]2[C@@H](COC[C@@H](O)CN2C(=O)Nc2cccc(F)c2)O1)c1ccccc1
 : -5	14	9
- C[C@@H]1CCc2cnnn2COC[C@@H](c2ccccc2)NC1=O
 : 24	-18	6
- CO[C@@H]1CN(C)C(=O)c2cc(NS(=O)(=O)c3ccccc3F)ccc2OC[C@@H](C)NC[C@@H]1C
 : -6	3.5	-3
- CCCNC(=O)N1CC2(C1)[C@@H](c1ccccc1)[C@@H](CO)N2C(=O)CC1CC1
 : -13	8.2	-5
- CN1C(=O)c2cc(NC(=O)c3cccc(F)c3)ccc2OC[C@H]2O[C@H](CC(=O)NCc3ccccc3Cl)CC[C@H]21
 : 2	2.0	4
- O=C(CN1CCOCC1)N1CCCCN2[C@@H](CO)[C@@H](c3ccc(Br)cc3)[C@@H]2C1
 : 14	-2.7	12
- Cc1noc(C)c1NC(=O)Nc1cccc2c1O[C@H](CN(C)Cc1ccc(C(=O)Nc3ccccc3N)cc1)[C@H](C)CN([C@H](C)CO)C2=O
 : -3	0.1	-2
- COc1ccc2c3c([nH]c2c1)[C@H](CO)N(C(=O)Nc1cccc(F)c1)CC31CN(S(=O)(=O)c2ccccc2)C1
 : x	x	u
- CCCC#Cc1ccc([C@H]2[C@H]3CN(Cc4cncnc4)CCCCN3[C@H]2CO)cc1
 : -2	7.1	5
- COCC(=O)N1[C@@H](C#N)[C@@H](c2ccc(-c3cccc(F)c3)cc2)[C@@H]1CO
 : 2	-1.2	1

As a working copy, some entries already given:
Each structure is followed by: DUX4 inh difference	DUX4 inh control	DUX4 inh
- CCCNC(=O)N1CC2(C1)[C@@H](c1ccccc1)[C@@H](CO)N2C(=O)CC1CC1
 : -13	8.2	-5
- CN1C(=O)c2cc(NC(=O)c3cccc(F)c3)ccc2OC[C@H]2O[C@H](CC(=O)NCc3ccccc3Cl)CC[C@H]21
 : 2	2.0	4
- O=C(CN1CCOCC1)N1CCCCN2[C@@H](CO)[C@@H](c3ccc(Br)cc3)[C@@H]2C1
 : 14	-2.7	12
- Cc1noc(C)c1NC(=O)Nc1cccc2c1O[C@H](CN(C)Cc1ccc(C(=O)Nc3ccccc3N)cc1)[C@H](C)CN([C@H](C)CO)C2=O
 : -3	0.1	-2
- COc1ccc2c3c([nH]c2c1)[C@H](CO)N(C(=O)Nc1cccc(F)c1)CC31CN(S(=O)(=O)c2ccccc2)C1
 : x	x	u
- CCCC#Cc1ccc([C@H]2[C@H]3CN(Cc4cncnc4)CCCCN3[C@H]2CO)cc1
 : -2	7.1	5
- COCC(=O)N1[C@@H](C#N)[C@@H](c2ccc(-c3cccc(F)c3)cc2)[C@@H]1CO
 : 2	-1.2	1

Further entries follow.
Each structure is followed by: DUX4 inh difference	DUX4 inh control	DUX4 inh
- CO[C@@H]1CN(C)C(=O)c2cc(NS(=O)(=O)c3cccc(Cl)c3)ccc2OC[C@H](C)NC[C@@H]1C
 : 12	0.8	13
- CN1CCCCN2[C@H](CO)[C@H](c3ccc(-c4cccnc4)cc3)[C@H]2C1
 : 21	8.1	29
- O=C(NC1CCCC1)[C@H]1[C@H](CO)[C@H]2Cn3c(ccc(-c4cccnc4)c3=O)[C@@H]1N2CC1CC1
 : 0	4.8	5
- O=C(C[C@@H]1C[C@@H]2c3cc(NC(=O)NC4CCCC4)ccc3O[C@@H]2[C@@H](CO)O1)NCc1ccc(-c2ccccc2)cc1
 : -1	1.0	0
- CCOC(=O)N(C)C[C@@H]1OCc2ccccc2-c2ccccc2C(=O)N([C@@H](C)CO)C[C@@H]1C
 : 9	3.8	13
- COc1ccc2c3c([nH]c2c1)[C@@H](CO)N(C(=O)C1CCOCC1)CC31CN(S(C)(=O)=O)C1
 : 3	1.5	5
- O=C(C[C@H]1C[C@H]2c3cc(NC(=O)C4CCC4)ccc3O[C@H]2[C@H](CO)O1)NCc1ccccn1
 : -2	2.4	1
- CN(C)C(=O)C[C@H]1CC[C@H]2[C@@H](COC[C@@H](O)CN2CC2CCOCC2)O1
 : 1	2.8	4
- COc1ccc(-c2ccc([C@@H]3[C@@H](CO)N4CCCCN(CC5CCOCC5)C[C@H]34)cc2)cc1
 : -14	14	1
- O=C(NCC(F)(F)F)[C@H]1[C@H](CO)[C@H]2Cn3c(cccc3=O)[C@H]2N1C(=O)C1CCCC1
 : 4	-3.4	1
- COc1cccc(NC(=O)N2C[C@@H](O)COC[C@@H]3O[C@@H](CC(=O)NC4CCCC4)CC[C@H]32)c1
 : 4	12	16
- C[C@@H]1CN([C@H](C)CO)C(=O)CCCn2cc(nn2)CO[C@@H]1CN(C)C(=O)Nc1ccc(C(C)(C)C)cc1
 : 6	0.2	6
- O=C(NC[C@H]1N[C@H](CO)[C@H]1c1ccc(-c2ccccc2F)cc1)c1ccccn1
 : -2	-1.2	-3
- O=C(N[C@H]1CC[C@@H](CC(=O)N2CCc3ccccc3C2)O[C@@H]1CO)C1CCOCC1
 : 8	-0.9	7
- CC(C)NC(=O)N1C[C@H]2[C@@H](c3ccccc31)[C@@H](CO)N2Cc1ccccn1
 : -6	2.2	-4

(cont.)
Each structure is followed by: DUX4 inh difference	DUX4 inh control	DUX4 inh
- CC(=O)N1[C@@H]2Cn3c(ccc(C4=CCCC4)c3=O)[C@H]1[C@@H](C(=O)N[C@@H](C)c1ccccc1)[C@@H]2CO
 : 1	3.9	5
- O=C(Nc1ccc2c(c1)[C@H]1C[C@H](CC(=O)N3CCc4ccccc4C3)O[C@H](CO)[C@H]1O2)Nc1ccccc1F
 : x	x	u
- COc1cccc(-c2ccc3c(c2)[C@H]2[C@H](CCN2C(=O)c2ccc(F)cc2)[C@@H](CO)N3C)c1
 : x	x	u
- C[C@@H](NC(=O)C[C@H]1C[C@@H]2c3cc(NC(=O)CN(C)C)ccc3O[C@@H]2[C@@H](CO)O1)c1ccccc1
 : 2	-0.2	2
- COc1ccccc1NC(=O)N(C)C[C@H]1OCc2ccccc2-c2ccccc2C(=O)N([C@H](C)CO)C[C@H]1C
 : 25	-3.7	21
- COCCNC(=O)C[C@@H]1CC[C@@H]2[C@H](COc3ccc(NS(=O)(=O)c4ccc(Cl)cc4)cc3C(=O)N2C)O1
 : -2	-1.1	-3
- C[C@@H]1CN([C@H](C)CO)C(=O)c2cc(NS(C)(=O)=O)ccc2O[C@@H](C)CCCCO[C@@H]1CN(C)S(=O)(=O)c1ccccc1
 : -3	2.0	-1
- C[C@H](CO)N1C[C@H](C)[C@H](CN(C)C(=O)Nc2ccc(C(F)(F)F)cc2)OCCCC[C@H](C)Oc2ccc(N(C)C)cc2C1=O
 : 3	-0.6	2
- COc1ccc2c3c(n(C)c2c1)[C@@H](CO)N(C(=O)CC1CC1)CC31CN(Cc2ccncc2)C1
 : 29	-2.0	27
- CO[C@H]1CC[C@@H]2CCOc3c(C#N)cccc3C(=O)N(C)C[C@H](OC)[C@@H](C)C(=O)N(C)C[C@@H]1O2
 : 1	-2.6	-2
- CN(C)CCCNC(=O)[C@H]1[C@H](CO)[C@H]2Cn3c(ccc(C4=CCCCC4)c3=O)[C@@H]1N2Cc1cocn1
 : -15	11	-4
- CCS(=O)(=O)N1CC(=O)N2[C@H](CO)[C@@H](c3ccc(C#CC4CCCCC4)cc3)[C@@H]2C1
 : 2	-1.5	1
- O=C(C[C@H]1CC[C@@H]2[C@H](COC[C@@H](O)CN2Cc2ccccc2F)O1)N1CCc2ccccc2C1
 : -6	3.0	-3
- COc1ccc2c3c([nH]c2c1)[C@@H](CO)N(C(=O)CC1CC1)CC31CCN(Cc2ccncc2)CC1
 : 22	-18	4
- OC[C@H]1Nc2ccc(C#Cc3ccc(F)cc3)cc2[C@H]2[C@@H]1CCN2Cc1nccs1
 : x	x	u
